# Bioassay records (PubChem BioAssay)
# NPYLR7 ag = agonists of mosquito NPYLR7 receptor, primary screen, cell-based, Aedes aegypti, calcium fluorescence, mosquito biting behavior; Aedes aegypti neuropeptide Y-like receptor 7 (NPYLR7); HEK293T NPYLR7/Galpha15, GCaMP6s calcium fluorescence; activation, % at 10 µM; 0.15% of 270,000 active; AID 1259423, 2018; in the data active = activation above about 40%;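 note: 0% = vehicle and 100% = reference agonist at the receptor; some compounds past the cut are filed as inactive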
# NPYLR7 ag max-min = further read-out of NPYLR7 ag, marked with its call; activation, %; measured here: Max-Min RFU normalised activation; some inactives read as strong as hits;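 span of the calcium signal over five minutes; 0% = vehicle and 100% = native peptide agonist; compound fluorescence can raise it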
# Numbers without * were called inactive; & = joins results of further samples. These rows are one share of the data; rates above refer to the full screens.
SMILES,NPYLR7 ag,NPYLR7 ag max-min
O=C1NCC2(CCCN(C(=O)c3ccccc3-c3ncc[nH]3)C2)O1 (stereo unspecified),4,2
Cc1ccccc1NC(=O)Cn1nc2c(cc1=O)CCCC2,1,2
O[C@H]1Cc2ccccc2[C@H]1Nc1nccc(CCC(F)(F)F)n1,9,7
c1csc(COc2ccc(CNc3nn[nH]n3)cc2)c1,15,13
Cc1ccc(N2CCCn3c2nc2c3c(=O)[nH]c(=O)n2C)cc1Cl,0,-3
CCOc1ccc(OCCCCOc2ccccc2C(C)=O)cc1,19,12
COc1cc2c(cc1OC)C1(CCCC1)CNC2C (stereo unspecified),3,-1
N#Cc1nc(Oc2ccc(-c3ccccc3)cc2)c(=O)[nH]c1C#N,10,4
CC1CC1CNC(=O)c1cc(S(N)(=O)=O)ccc1Br (stereo unspecified),0,3
CN1CC2=C(C1=O)C(c1ccc(Br)cc1)NC(=O)N2 (stereo unspecified),1,1
Cc1ccc(C)c(OCC(O)CN2C(=O)NC(C)(c3ccccc3)C2=O)c1 (stereo unspecified),2,6
COc1ccc(C(=O)NNc2cc(=O)n(C)c(=O)n2C)cc1,1,1
CC1c2ccsc2CCN1Cc1c(O)ccc2ccccc12 (stereo unspecified),-4,-4
C=c1c(C#N)c2[nH]c(N)c(C#N)c(C)c-2/c1=C\c1ccc(OC)c(OC)c1,10,6
CCc1ccc(CN(C)C(=O)c2cc(=O)c3ccccc3o2)nc1,-2,-2
Cc1cccc2c(-c3ccc(O)c(-c4ccno4)c3)c[nH]c12,12,-6
CN(CC(=O)N(C)C1CCN(CC2CCOC2)CC1)c1ccccc1 (stereo unspecified),10,8
COc1ccc(-n2ccnc2CN(C)CC2CCN(Cc3ccc(C)o3)CC2)cc1,1,0
COc1ccc2c(c1)C1(CC(=O)N(Cc3ccccc3)C1=O)C(=O)N2CCCn1c(=O)n(C)c2ccccc21 (stereo unspecified),15,5
c1ccc(NCCn2cnc(-c3ccccc3)c2-c2ncc[nH]2)cc1,6,5
O=C1NC2(CCN(C(=O)c3ccc([N+](=O)[O-])cc3)CC2)Nc2cccc(Cl)c21,1,2
CCOc1ccc(-c2cc3c(=O)n(CC(=O)Nc4ccc(Oc5ccccc5)cc4)ccn3n2)cc1,10,8
COc1ccc(NC(=O)NC(c2ccccc2)c2ccccc2)cc1N1CCCC1=O,-3,-4
Cc1cccc(NC(=O)NC(=O)CN2CCc3sccc3C2)c1C,-3,-4
O=C(NCc1cccs1)NCc1nnnn1-c1ccc(F)c(F)c1,1,0

# Other entries.
SMILES,NPYLR7 ag,NPYLR7 ag max-min
CCCN1C(=O)C(=Cc2ccc(OC)c(OC)c2)NC1=S,1,-1
COCCNC(=O)c1ccc(CSc2nnc(-c3cccc(OC)c3)n2-c2ccc(C)cc2)cc1,20,16
CCOC(=O)C1CCCN(C(=O)c2ccc(CSc3nc(COC)cc(N(C)C)n3)o2)C1 (stereo unspecified),1,10
O=c1c2c(-c3ccccc3)n3ncnc3nc2ccn1Cc1cccnc1,-4,-2
CC1Cc2ccccc2N(C(=O)c2ccc(CNC(N)=O)cc2)C1 (stereo unspecified),1,-1
CCn1nc(C)c(CNC(=O)c2ccc(N3CCCC3)c(F)c2)c1C,-4,-5
CC(=O)c1ccc(NC(=O)c2ccc(C)c(S(=O)(=O)N3CCOCC3)c2)cc1,-10,-14
CCOC(=O)C1(NC(=O)CS(=O)(=O)CC)CCc2ccccc21 (stereo unspecified),-20,-20
FC(F)Oc1ccc(C2CC(c3ccccc3)=Nc3nnnn32)cc1 (stereo unspecified),-1,-1
CCOC(=O)c1ccc2c(c1)n(CC(O)c1cccc(F)c1)c(=O)n2CC (stereo unspecified),-7,-7
COc1ccc(-c2cc3ncn(CCC(N)=O)c(=O)c3s2)cc1,1,0
Cc1cc(NC(=O)CN2CCN(S(=O)(=O)c3ccc(C(C)(C)C)cc3)CC2)no1,4,3
O=C(O)c1cc2cc(Br)ccc2oc1=O,5&-2,5&-2
COc1ccc(NC(=O)C(Sc2ccc(F)cc2)C(C)C)cc1 (stereo unspecified),-5,-8
Cc1ccc(C2(O)CCN(Cc3cc(C#CCO)cs3)CC2)nc1,30,17
Cc1ccc(CN(C(=O)c2ccco2)C2CCS(=O)(=O)C2)o1 (stereo unspecified),6,4
CC(=O)N1Cc2ccccc2C(C)CC12CCCC2 (stereo unspecified),5,2
CCOC(=O)N1CCC2(CC1)NCCc1[nH]cnc12,-1,-4
O=C(Nc1cc(Cl)ccc1Cl)N1CCC(c2ccccc2)CC1,-7,-12
CN(C)CCOC(=O)C12CC3CC(CC(C3)C1)C2,5,3
CCc1c(C)nn(CC(=O)N[C@@H]2C[C@@H](C(=O)OC)N(C)C2)c1C,2,12
O=C(CSc1nc(-c2ccccc2)cc(=O)[nH]1)c1ccccc1,0,1
COc1ccc(-c2nn(-c3ccccc3C)cc2CN2CCCC(CNC(C)=O)C2)cc1F (stereo unspecified),12,-1
C=CCn1c(SCC(=O)N(CC)CC)nnc1-c1ccc(OC)cc1,-4,0
Cc1cc(C(=O)C(C)n2cnc3c2c(=O)n(C)c(=O)n3C)c(C)n1Cc1ccco1 (stereo unspecified),1,16

# The results go on.
SMILES,NPYLR7 ag,NPYLR7 ag max-min
CCn1nnc2c(NCCC(C)C)ncnc21,9,3
COc1ccc(C(C2Sc3nc(C)nn3C2=O)N2CCN(c3ccc(OC)cc3)CC2)cc1 (stereo unspecified),7,5
CC(C)(C)NC(=O)CNC(=O)C(C)(C)Oc1ccc(C#N)cc1,0,0
CCSc1nc(CC(=O)N[C@H]2CCN(Cc3ccccc3)C2)cs1,-5,-7
CN1CCN(c2oc(-c3ccc(COc4ccc(Cl)cc4)o3)nc2C#N)CC1,-1,11
S=C(Nc1ccc2c(c1)OCO2)Nc1ccccc1Cl,13,15
Cc1cc(C(F)(F)F)nc2[nH]c(=O)c3ccccc3c12,0,-1
COC(=O)c1ccc2c(c1)C1CC(C)(O2)N(c2ccc(C)c(Cl)c2)C(=O)N1 (stereo unspecified),-2,2
CC(C)(C)OC(=O)N1CCN(Cc2nc(C3CC3)cs2)CC1,2,2
Cn1cc(C(=O)N2CCCCCC2)cc(NC(=O)c2ccccc2Cl)c1=O,-12,-16
O=c1cc(N2CCNCC2)oc2c(-c3ccccc3)cccc12,-10,-15
C(=NNc1ncnc2sc3c(c12)CCCC3)c1ccncc1,-6,-8
COc1ccc(N2CC(c3nc(-c4ccc(OC)cc4OC)no3)CC2=O)cc1 (stereo unspecified),0,5
CCOc1cc(S(=O)(=O)NCCCN2CCOCC2)ccc1Cl,3,5
CCc1ccccc1N1CCN(C(=O)c2ccc(Cl)cc2)C(C)C1=O (stereo unspecified),8,20
CCc1ccc(C2CCCN2S(=O)(=O)NCc2noc(C)n2)o1 (stereo unspecified),4,0
CN(CCN1C(=O)CC2(CCSC2)C1=O)c1ccccc1 (stereo unspecified),1,0
COc1cccc(C(O)c2ncc(-c3cccc(C(F)(F)F)c3)[nH]2)c1 (stereo unspecified),2,-2
O=c1oc(-c2cccnc2)nc2ccc(Br)cc12,-6,-14
CCN(CCCNC(=O)Nc1ccc(F)c(F)c1)S(C)(=O)=O,0,0
C[C@@H](NC(=O)c1ccc(-n2nc(-c3ccc(Cl)cc3)cc2N)cc1)C(C)(C)C,26,12
CCN(CC)C(=O)Oc1ccc2c(ccn2Cc2cc(C)cc(C)c2)c1NS(=O)(=O)c1ccc(C)cc1OC,-1,2
C#CCOCC(O)CN(CCOC)Cc1ccccc1OC (stereo unspecified),23,23
Clc1ccc(-c2cccc(Nc3ccc(Oc4ccccc4)cc3)n2)cc1,-7,-11
O=C(NCC1CCCN(Cc2ccccn2)C1)c1ccc(-c2ccccc2)cc1 (stereo unspecified),3,0

# Whole records, looked up by structure. Order of screens: NPYLR7 ag	NPYLR7 ag max-min
# Shown for CCSc1nc(CC(=O)N[C@H]2CCN(Cc3ccccc3)C2)cs1 = -5	-7
# Shown for CCn1nnc2c(NCCC(C)C)ncnc21 = 9	3

# Carrying on:
SMILES,NPYLR7 ag,NPYLR7 ag max-min
CC(C)(C)n1ncc2c(=O)n(NC(=O)c3ccc(Br)o3)cnc21,3,-1
CCc1nc(NC(=O)CN2CCCN(Cc3ccc(Cl)cc3)CC2)sc1C,4,1
Cc1noc(-c2cccc(C(F)(F)F)c2)c1C(=O)NCCOc1ccccc1,8,20
O=c1c2c(cnn2-c2ccc(F)cc2)c(C2CC2)nn1CCc1ccccc1,1,0
COc1ccccc1-n1c(SCc2nc(C(=O)O)cs2)nnc1-c1ccccc1Cl,2,-6
CC(=O)N1CCc2ccccc2C1c1ccccc1F (stereo unspecified),20,9
O=C(O)CCN1C(=O)CSC1c1ccc(F)cc1 (stereo unspecified),1,-5
CCCCc1nnc(NC(C)=O)s1,4,1
COc1ccc(C(C)(C)C)cc1NS(=O)(=O)c1cccc(C(C)=O)c1,1,1
CCN(CCO)C(=O)CC1C(=O)NCCN1Cc1cccc(Oc2ccccc2)c1 (stereo unspecified),4,0
COc1ccc(CCNC(=O)c2c(C)noc2-c2ccncc2)cc1OC,7,16
COCc1nc(NCc2ccc(Cl)c(Cl)c2)c2cnn(C)c2n1,0,-3
COc1cccc(CSc2nnc(CNC(=O)Nc3ccc(C#N)cc3)n2-c2ccc(Cl)cc2Cl)c1,-6,1
CN(C(=O)CN1CCN(c2cc(-c3ccc(OCc4ccccc4)cc3)ncn2)CC1)c1ccccc1,-3,-4
COc1ccc(-n2nc3c(c2NC(=O)c2ccc(S(=O)(=O)N(C)C)cc2)CS(=O)C3)cc1 (stereo unspecified),-3,-5
c1csc(-c2noc(CSc3ccc4ccccc4c3)n2)c1,-2,4
Cc1cc2nc(-c3cccs3)cc(-c3nnc(SCC(=O)c4cccc(F)c4)n3C(C)C)c2cc1C,-5,-6
CC(C)SC(NC(=O)OCc1ccccc1)C(=O)NCc1cccc(OC(F)(F)F)c1 (stereo unspecified),-6,-11
COC(=O)c1cc2n(n1)CCCN(C(=O)c1sccc1NC(C)=O)C2,21,15
C=CCCC(O)CN(Cc1c(CC)nn(-c2ccccc2)c1Oc1cccc(OC)c1)CC1CC1 (stereo unspecified),8,12
Cc1ccc(C)c(C(=O)N2CCCC(Cn3cc(C(C)(C)N)nn3)C2)c1 (stereo unspecified),16,3
O=C(NCCc1ccccc1F)NCc1ccc(NC(=O)C2CC2)cc1,6,2
CC1CCCN(C(=O)CCNC(=O)c2ccc(C(C)(C)C)cc2)C1 (stereo unspecified),5,1
CCCCn1nc(C(=O)NCCCOCC2CC2)c2ccccc2c1=O,-5,-6
CCCN1C(=O)C(CCC(=O)NCc2ccccc2F)NC(=O)c2ccccc21 (stereo unspecified),1,23

# (continued)
SMILES,NPYLR7 ag,NPYLR7 ag max-min
NCc1ccccc1CS(=O)(=O)N1CCCC1,8,4
CCOc1c(Cl)cc(Cl)cc1CNc1nnnn1C,13,12
COC(=O)CCCC(=O)N1CCN(c2nccc(-c3ccc4c(c3)OCO4)n2)CC1,-8,-12
CCOCCCn1c(=NC(C)=O)c(C(=O)OCC)cc2c(=O)n3ccccc3nc21,-2,-1
COc1ccc(C)c2sc(N(CCCN3CCOCC3)C(=O)c3cccc([N+](=O)[O-])c3)nc12,1,2
Cc1ccc(S(=O)(=O)N2CCN(C(=O)NC3CC3)CC2)c(C)c1,-1,-6
CSc1ccc(CN(C(=O)[C@H](N)c2ccccc2)C2CC2)cc1,-1,15
O=c1c2c(nc(SCc3ccccc3)n1-c1ccc(Cl)cc1)CCS2,1,28
CCc1nc2ccc(C(=O)N(C)Cc3ccco3)cn2c1N(C=O)CCC(C)C,-6,-11
NC(=O)NC(CC(=O)Nc1ccc(F)c(F)c1)c1ccc(Br)cc1 (stereo unspecified),6,6
COc1cc2nc(/C(Cl)=C/c3cnc(C4CCCCC4)s3)[nH]c(=O)c2cc1OC,1,-1
CCCN1CCC(=NNc2ccc(C)c(Cl)c2)CC1,1,0
COc1ccccc1OCc1nc(CN(C(=O)C2CC2)C2CC2)cs1,24,26
CCN1CCCC(Nc2cc(C)nc3nc(C(F)(F)F)nn23)C1 (stereo unspecified),-5&-2,-6&-9
COc1ccc(OC)c(C(O)CNc2cc3ccccc3c(Cl)n2)c1 (stereo unspecified),7,7
CCc1ccc(C2CC(C)CCN2CC(=O)NC2CCOCC2)o1 (stereo unspecified),2,2
COc1ccc(CS(=O)C(C)c2nc(C(C)C)no2)cc1F (stereo unspecified),8,6
Cc1cc(C)c2[nH]c(CN3CCCC(N4CCOCC4)C3)cc(=O)c2c1 (stereo unspecified),1,-2
COc1ccccc1NC(=O)Nc1ccc(N(C)C)c(C(=O)NCCCN2CCOCC2)c1,20,26

# Entries from the list above containing an NH in an aromatic ring, in the order listed:
SMILES,NPYLR7 ag,NPYLR7 ag max-min
O=C1NCC2(CCCN(C(=O)c3ccccc3-c3ncc[nH]3)C2)O1 (stereo unspecified),4,2
c1csc(COc2ccc(CNc3nn[nH]n3)cc2)c1,15,13
Cc1ccc(N2CCCn3c2nc2c3c(=O)[nH]c(=O)n2C)cc1Cl,0,-3
N#Cc1nc(Oc2ccc(-c3ccccc3)cc2)c(=O)[nH]c1C#N,10,4
C=c1c(C#N)c2[nH]c(N)c(C#N)c(C)c-2/c1=C\c1ccc(OC)c(OC)c1,10,6
Cc1cccc2c(-c3ccc(O)c(-c4ccno4)c3)c[nH]c12,12,-6
c1ccc(NCCn2cnc(-c3ccccc3)c2-c2ncc[nH]2)cc1,6,5
CCOC(=O)N1CCC2(CC1)NCCc1[nH]cnc12,-1,-4
O=C(CSc1nc(-c2ccccc2)cc(=O)[nH]1)c1ccccc1,0,1
Cc1cc(C(F)(F)F)nc2[nH]c(=O)c3ccccc3c12,0,-1
COc1cccc(C(O)c2ncc(-c3cccc(C(F)(F)F)c3)[nH]2)c1 (stereo unspecified),2,-2
COc1cc2nc(/C(Cl)=C/c3cnc(C4CCCCC4)s3)[nH]c(=O)c2cc1OC,1,-1
Cc1cc(C)c2[nH]c(CN3CCCC(N4CCOCC4)C3)cc(=O)c2c1 (stereo unspecified),1,-2
